# HNF4A DNA FP: change in binding of human HNF4A to DNA, primary screen, biochemical, fluorescence polarization, FITC-DNA; Hepatocyte nuclear factor 4-alpha (Homo sapiens), P41235; activity change, % at 10 µM; 0.3% of 360,000 active; 1 h; in the data active means activity change above about 30%, passing the limit was not always enough;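 further: controls were the assay level and a saturating level of protein; the project sought stronger binding though the title names inhibitors; some compounds called inactive have numbers as strong as hits; positive values seem to mean higher polarization but the record does not say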
# Target sequence (P41235 whole entry, looked up): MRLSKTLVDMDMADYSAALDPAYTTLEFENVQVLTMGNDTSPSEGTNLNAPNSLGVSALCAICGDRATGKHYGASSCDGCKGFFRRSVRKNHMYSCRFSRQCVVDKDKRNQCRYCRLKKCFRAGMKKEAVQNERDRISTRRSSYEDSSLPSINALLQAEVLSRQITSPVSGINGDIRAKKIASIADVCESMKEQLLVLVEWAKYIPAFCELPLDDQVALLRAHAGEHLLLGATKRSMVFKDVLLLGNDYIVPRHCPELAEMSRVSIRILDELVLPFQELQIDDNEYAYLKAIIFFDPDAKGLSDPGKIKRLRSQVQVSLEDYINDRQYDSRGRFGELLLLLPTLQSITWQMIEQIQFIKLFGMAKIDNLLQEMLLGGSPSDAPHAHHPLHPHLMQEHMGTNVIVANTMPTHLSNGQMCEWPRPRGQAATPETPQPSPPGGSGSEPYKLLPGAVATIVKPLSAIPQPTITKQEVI
# MLL AF4-AF9 inh: inhibitors of AF4 peptide binding to AF9, primary screen, biochemical, AlphaScreen, biotin-AF4 peptide, FLAG-AF9, single point; inhibition, % at 10 µM; 0.47% of 350,000 active;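 active means every replicate reaching a set inhibition limit, whatever the replicate mean, cut at about 25% in these data; inconclusive means mean inhibition reaches that limit but some replicates miss it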;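 further: 0% = plate neutral control median and 100% = total signal loss; the record names both 10 and 1 µM as test concentration; the first replicate is given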
# Target sequence (P42568 whole entry, looked up): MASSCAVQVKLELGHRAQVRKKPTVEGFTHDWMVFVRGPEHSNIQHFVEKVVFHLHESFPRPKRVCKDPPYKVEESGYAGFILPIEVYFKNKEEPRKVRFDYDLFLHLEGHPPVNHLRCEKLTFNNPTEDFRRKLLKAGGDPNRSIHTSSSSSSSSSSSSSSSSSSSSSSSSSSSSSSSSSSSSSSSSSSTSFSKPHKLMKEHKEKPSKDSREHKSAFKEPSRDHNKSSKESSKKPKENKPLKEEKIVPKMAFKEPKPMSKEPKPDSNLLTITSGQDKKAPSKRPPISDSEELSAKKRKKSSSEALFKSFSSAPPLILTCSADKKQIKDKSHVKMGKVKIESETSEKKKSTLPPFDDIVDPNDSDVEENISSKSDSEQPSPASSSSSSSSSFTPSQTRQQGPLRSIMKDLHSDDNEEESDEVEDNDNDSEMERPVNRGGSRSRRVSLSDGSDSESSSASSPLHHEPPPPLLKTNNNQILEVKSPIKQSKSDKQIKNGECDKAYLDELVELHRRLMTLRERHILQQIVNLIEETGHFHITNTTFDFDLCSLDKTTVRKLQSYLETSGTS
# FGF22 binding: binders of human FGF22 protein, primary screen, FGF22 synaptogenesis inhibitor project, biophysical, thermal shift, single point. recombinant FGF22 thermal shift, SYPRO orange fluorescence; percent of sucrose octasulfate shift, DMSO zero. calls only at 9.99 µM. 1.5% of 340,000 active. AID 651658, 2012;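 active means melting point raised past a set limit in the mean and every replicate; inconclusive means no clear call; three in four hits are not shown here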
# ALR H2O2 inh: inhibitors of human ALR sulfhydryl oxidase, primary screen, biochemical, H2O2 detection, HRP-luminol luminescence, single point; inhibition, % (no concentration beside the values); purified ALR, DTT oxidation; 3.8% of 290,000 active; FAD-linked sulfhydryl oxidase ALR (Homo sapiens), P55789;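 active means mean and each replicate at 75% or more; inconclusive means only one of the two met; inactive means neither met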;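 further: stock transfer was 7.5 nL into about 7.5 µL; 0% = neutral wells and 100% = wells with inactivated enzyme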
# Vif TR-FRET: inhibitors of Vif binding to APOBEC3G peptide, primary screen, biochemical, TR-FRET, GST-Vif 1-94, biotin-A3G peptide, dose response retest (AID 1117319); TR-FRET GST-Vif / biotin-A3G peptide binding; higher % means a stronger effect; test concentration not given here; strong numbers were not always called active; inhibition, %; hits with a dose series show IC50 in µM; 0.57% of 260,000 active; Virion infectivity factor (Human immunodeficiency virus type 1 group M subtype B (isolate …;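 active means above the screen mean plus three standard deviations and confirmed in dose response; inconclusive means results disagree or hit not tested in dose response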;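 further: Vif residues 1-94 fused to GST binding biotinylated APOBEC3G peptide 110-148; 0% = full assay without inhibitor and 100% = GST in place of GST-Vif; retest series ran down from 100 µM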
# Ecoli growth: E. coli growth inhibition, primary screen, OD600 | Escherichia coli growth, 23 h; active compounds read low | OD600 absorbance (concentration not given with the values) | 0.21% of 330,000 active | AID 1053175, 2014;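 active means OD600 absorbance below the run mean of sample wells minus 3.6 SD, in any replicate, cut at about 0.56 in these data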;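 further: stock transfer was 300 nL into about 60 µL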
# Ecoli rRNA inh: reduced GFP signal of wild-type E. coli, primary screen, bacterial rRNA inhibitor project, GFP/RFP fluorescence, OD600, single point | E. coli WT GFP vs humanized-ribosome RFP mutants, 24 h; active compounds read low; DMSO median 0, no signal -100 | GFP signal change (wild-type ribosome), % (concentration not given with the values) | 1.6% of 350,000 active | AID 720706, 2013;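 active means significant combined selectivity score with lowered wild-type GFP, culture density cut under 30%, mutant RFP and density less affected; inactive means any of these conditions unmet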; further: one replicate is shown; some compounds called inactive have numbers as strong as hits
# Ecoli rRNA inh OD600: second read-out of Ecoli rRNA inh, no call of its own (marks repeat the call); OD600 change, %; measured here: OD600 growth;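 optical density of the mix in the first replicate; 0 = DMSO median and -100 = no signal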
# Ecoli rRNA inh RFP: also measured in Ecoli rRNA inh; calls as there; RFP signal change, %; measured here: RFP humanized mutant strains;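 first replicate; 0 = DMSO median and -100 = no signal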
# Active calls of the source: *; i = inactive; ? = inconclusive; / = no result given; & = joins results of further samples.
# Every second line gives: HNF4A DNA FP, MLL AF4-AF9 inh, FGF22 binding, ALR H2O2 inh, Vif TR-FRET, Ecoli growth, Ecoli rRNA inh, Ecoli rRNA inh OD600, Ecoli rRNA inh RFP
CC1CCC2(CC1)NC(=O)N(NC(=O)c1cc3ccccc3o1)C2=O (stereo not drawn)
  1.2, -0.7, i, -3, -8%, 0.67, 9, 11, -0.7
S=C(NCCc1ccccc1)N1CCCCC1
  0.9, 0.3, i, -5, 1%, 0.74, 6, 14, -0.7
O=c1oc2ccccc2c(O)c1C=NCc1ccccn1
  1.3, /, /, -4, 4%, 0.72, /, /, /
COc1cc(/C=N/NC(=O)c2cc(C)oc2C)ccc1OCc1ccccc1
  1.9, 2.0, i, -2, 1%, /, /, /, /
Cc1ccccc1S(=O)(=O)N1C[C@@H](O)COC[C@H]2O[C@H](CC(=O)N3CCOCC3)CC[C@@H]21
  /, -1.3, i, /, /, /, 3, 11, 0.4
O=C(CCCOc1ccccc1)Nc1cccc(S(=O)(=O)N2CCCCC2)c1
  1.9, 1.7, i, /, /, 0.69, -14, -28, 2.3
CCN(CCCNC(=O)Cn1ncc2c([nH]c3ccccc32)c1=O)Cc1ccccc1
  4.5, -1.2, i, -4, /, 0.68, 6, 5, 3.3
O=C(C[C@H]1CC[C@@H]2[C@H](COC[C@@H](O)CN2S(=O)(=O)c2cccc(Cl)c2)O1)Nc1ccccc1
  /, 1.2, i, /, /, /, -7, -4, -0.8
C[C@H]1CN([C@@H](C)CO)C(=O)Cc2cc(NC(=O)Nc3ccc(F)cc3)ccc2O[C@H]1CN(C)C(=O)Nc1ccc2c(c1)OCO2
  /, 3.2, i, /, /, /, 0, -1, -0.4
Cc1ccn2c(Nc3ccccc3C)c(-c3cccnc3)nc2c1
  0.7, -9.2, /, 97*, 1%, 0.68, -15, -19, -9.0
CCOC(=O)CCC(=O)N1CCOCCOCCN(C(=O)CCC(=O)OCC)CCOCC1
  3.6, /, /, -10, 4%, 0.73, /, /, /
COc1ccc(NC(=O)N[C@@H]2CC[C@@H](CCn3cc(-c4ccc(F)cc4)nn3)O[C@@H]2CO)cc1
  /, -12, i, /, /, /, 0, -4, -1.1
CC(C)NC(=O)N(C)C[C@@H]1Oc2cc(C#CC3CC3)ccc2S(=O)(=O)N([C@H](C)CO)C[C@@H]1C
  /, -3.1, i, /, /, /, 5, 0, -0.9
CCOc1nc2ccccc2nc1NS(=O)(=O)c1ccccc1
  -6.7, /, /, -2, 7%, 0.71, /, /, /
Cc1ccc(N2CCN(C(=O)C(=O)c3cccc([N+](=O)[O-])c3)CC2)cc1
  0.5, 2.0, i, /, /, /, -4, -3, 3.2
COc1ccc(S(=O)(=O)N(C)C[C@H]2Oc3c(NC(=O)Nc4ccc5c(c4)OCO5)cccc3C(=O)N([C@@H](C)CO)C[C@H]2C)cc1
  /, 7.9, i, /, /, /, -3, -4, 0.6
CC(C)c1ccc(/C=C/C(=O)NC(=S)NN2CCOCC2)cc1
  -3.6, -0.2, i, 80*, /, 0.68, -5, -4, -2.8
Cc1cc(C(=O)OCC(=O)Nc2cc(C(F)(F)F)ccc2N2CCOCC2)c(C)o1
  -2.0, /, /, -3, 0%, 0.75, /, /, /
CO[C@H]1CN(C)C(=O)c2cc(NC(C)=O)ccc2OC[C@H](C)N(C(=O)Cc2ccccn2)C[C@@H]1C
  /, ?, i, /, /, /, 4, 11, -1.4
Cc1c(S(=O)(=O)N2CCC(C)CC2)c(=O)n(C)c(=O)n1C
  -1.4, -8.2, i, 1, /, 0.66, 26, 15, 6.0
Cc1c(NC(=O)c2cc(-c3ccc(O)cc3)on2)c(=O)n(-c2ccccc2)n1C
  -0.6, 6.6, i, /, ?, 0.71, -3, 4, 0.5
C[C@H]1CN([C@@H](C)CO)S(=O)(=O)c2ccc(-c3ccc(C(=O)N(C)C)cc3)cc2O[C@H]1CN(C)C(=O)C1CCOCC1
  /, 0.8, i, /, /, /, 4, 2, -2.0
CC[C@H](C)[C@H]1CNC(=S)N1CC1CCN(CC2CCC(C)CC2)CC1 (stereo partly drawn)
  -0.4, 1.8, i, /, 3%, /, 5, -4, -3.2
NNc1nccc(Nc2ccccc2C(=O)O)n1
  -7.2, 2.4, i, /, /, 0.67, /, /, /
CCC(=O)N1CCc2cc(S(=O)(=O)NC(Cc3ccccc3)C(=O)NC3CCCCC3)ccc21 (stereo not drawn)
  -0.5, 0.7, i, /, -4%, 0.65, 8, 11, -0.5
C[C@H](CO)N1C[C@H](C)[C@H](CN(C)C(=O)c2cccnc2)Oc2ncc(-c3ccc(F)cc3)cc2C1=O
  /, -2.6, i, /, /, /, 0, 0, -2.1
CC(=O)c1ccc(N(C)C)c2c(N(C)C)cccc12
  -0.9, /, /, 69, 3%, 0.7, /, /, /
Cc1nn(C(C)C(=O)O)c2ccccc12 (stereo not drawn)
  3.8, /, /, 2, -7%, 0.68, /, /, /
Cc1csc(NC(=O)C(NS(=O)(=O)c2ccc(Br)s2)c2ccccc2)n1 (stereo not drawn)
  1.3, /, /, -6, 72%, 0.77, /, /, /
Nc1cccc(-c2nc3ccccc3s2)c1
  -0.6, /, /, 99*, -3%, 0.72, /, /, /

# Every second line gives: HNF4A DNA FP, MLL AF4-AF9 inh, FGF22 binding, ALR H2O2 inh, Vif TR-FRET, Ecoli growth, Ecoli rRNA inh, Ecoli rRNA inh OD600, Ecoli rRNA inh RFP
N#Cc1cnn(-c2ccc(F)cc2)c1N
  -0.1, -3.5, i, 5, 18%, 0.72, 0, 2, 1.5
CNC(=S)N(CCCn1ccnc1)Cc1c(F)cccc1Cl
  0.0, 1.9, i, /, /, 0.64, 4, 6, -2.2
COCC(=O)Nc1ccc2c(c1)C(=O)N(C)C[C@@H](OC)[C@H](C)CN(C(=O)c1ccccn1)[C@H](C)CO2
  /, -0.1, i, /, /, /, 2, 0, 0.1
C[C@H](CO)N1C[C@H](C)[C@@H](CN(C)Cc2ccc(-c3ccccc3)cc2)Oc2ccc(NC(=O)CCN3CCOCC3)cc2CC1=O
  /, 14, i, /, /, /, 1, -27, 13
CC(C)CCn1cnc2c(oc3nc4c(cc32)CCCC4)c1=O
  3.6, -6.2, i, -5, -1%, 0.66, -15, -8, -4.2
COc1ccc2c3c(n(C)c2c1)[C@@H](CO)N(Cc1ccccc1Cl)CC31CN(C(=O)CC2CC2)C1
  /, 6.0, i, /, /, /, -10, -49, 22
COc1ccc(S(=O)(=O)/C(C#N)=C/Nc2ccc(NC(C)=O)cc2)cc1
  4.6, 5.2, i, 3, -4%, 0.69, 8, 1, 4.6
CCN1C/C(=C/c2ccc(N3CCOCC3)cc2)C(=O)/C(=C/c2ccc(N3CCOCC3)cc2)C1
  0.7, ?, i, 12, 31%, 0.67, -18, 5, 15
CC(=O)Nc1ccc(-c2nnc(SCC(=O)n3c4c(c5ccccc53)CCCC4)n2C)cc1
  -7.4, 3.6, i, /, 1%&-5%, 0.67, 14, 14, -10
CCCC(C)NC(=O)c1ccc(C2SCC(=O)N2Cc2ccco2)cc1 (stereo not drawn)
  1.9, /, /, 0, 4%, 0.76, /, /, /
CCN(CC(=O)Nc1c(F)cccc1F)C(=O)C1CC(=O)N(CCc2ccccc2)C1 (stereo not drawn)
  2.7, -6.2, i, 4, 5%, 0.66, 13, 14, -0.7
CC1(C(=O)NS(=O)(=O)C2CC2)CCCN(C(=O)COc2ccc(Cl)cc2Cl)C1 (stereo not drawn)
  3.2, 0.8, i, /, /, /, -1, 5, -0.1
C[C@@H]1CCCCO[C@H](CN(C)Cc2ccc(C(=O)O)cc2)[C@H](C)CN([C@@H](C)CO)C(=O)c2cc(NC(=O)Nc3cccc4ccccc34)ccc2O1
  /, -1.1, i, /, /, /, -8, 7, -3.3
CO[C@H]1CN(C)C(=O)c2cc(NS(=O)(=O)c3ccccc3F)ccc2OC[C@@H](C)NC[C@H]1C
  /, -2.4, i, /, /, /, 4, 4, 0.1
Cc1cc(C)c(NC(=O)C(=O)NCc2ccco2)c(C)c1
  -1.4, /, /, -15, 7%, 0.71, /, /, /
CCc1ccc(/C=N/NC(=O)c2cc(-c3ccncc3)nc3ccccc23)s1
  -3.3, /, /, -2, -9%, /, /, /, /
CC1CCC(C(C)C)C(OC(=O)Cn2nnc3c(cnn3-c3ccccc3)c2=O)C1 (stereo not drawn)
  1.3, 3.1, i, -5, 5%, 0.71, 4, 0, -8.4
COc1ccccc1OCc1ccc(C(=O)N2CCN(C(=O)c3ccco3)CC2)cc1
  -10, /, /, -48, -2%, 0.74, /, /, /
CC(C)C(=O)Nc1nnc(CCN2CCCCC2)s1
  6.1, /, /, -10, ?, 0.69, /, /, /
Cc1nc(C(F)(F)F)ccc1C(=O)N1CCC1(C)C(=O)NS(=O)(=O)c1ccc(C#N)cc1 (stereo not drawn)
  -0.4, -2.3, i, /, /, /, 6, 19, -0.9
Cc1c(C(=O)OCCOc2ccc(Br)cc2)sc(=S)n1C
  -1.5, /, /, 14, -8%, 0.7, /, /, /
COC(=O)CNC(=O)Cn1cnc2sc(C)c(S(=O)(=O)N3CCC(C)CC3)c2c1=O
  4.7, /, /, /, ?, 0.73, /, /, /
COc1ccc(C(=O)N/C(=C\c2cn(C)c3ccccc23)C(=O)N2CCOCC2)cc1OC
  0.1, -0.7, i, 32, -5%, 0.66, -5, 0, 5.2
COc1cccc(CNC(=O)C[C@@H]2CC[C@H](NS(=O)(=O)c3ccccc3OC)[C@H](CO)O2)c1
  /, -1.5, i, /, /, /, 0, -4, -3.7
O=C(CN1CCN(Cc2ccccc2)CC1)Nc1ccc(Cl)cn1
  2.6, /, /, -7, 0%, 0.62, /, /, /
COc1cc(-c2nc3sc(C)c(C)c3c(=O)o2)cc(OC)c1OC
  1.1, -4.8, i, -7, /, 0.73, 2, 4, 1.2
O=C(C[C@H]1C[C@H]2c3cc(NC(=O)C4CCOCC4)ccc3O[C@H]2[C@@H](CO)O1)NCc1cccnc1
  /, 1.5, i, /, /, /, 0, 11, -3.1
Cc1cc(C)c2cc(CN(CCO)C(=O)NC3CCCCC3)c(=O)[nH]c2c1
  -2.0, -2.1, i, -9, -9%, 0.71, -5, 2, -2.6
COc1ccccc1-n1c(CNC(=O)COc2ccccc2)n[nH]c1=S
  -1.0, /, /, 31, -3%, 0.65, /, /, /
CC(=O)Nc1ccc(-c2ccnc3c2CC(C)(C(=O)Nc2ccc4c(c2)OCO4)O3)cc1 (stereo not drawn)
  -0.2, 6.1, i, /, /, /, -23*, -8.3*, 3.1*

# Every second line gives: HNF4A DNA FP, MLL AF4-AF9 inh, FGF22 binding, ALR H2O2 inh, Vif TR-FRET, Ecoli growth, Ecoli rRNA inh, Ecoli rRNA inh OD600, Ecoli rRNA inh RFP
Cc1cc(C)nc(Nc2n[nH]c(-c3ccccc3Br)n2)n1
  -0.6, /, /, 0, -12%, 0.7, /, /, /
COc1ccc(S(=O)(=O)NC2CC3CCC2C3)cc1Cl (stereo not drawn)
  -4.3, 5.0, i, -17, -1%, 0.66, -32, -53, -0.7
O=C(CCCSc1nc2ccccc2[nH]1)N1CCN(c2ccccc2)CC1
  -5.2, /, /, 22, ?, 0.65, /, /, /
NS(=O)(=O)c1cc(C(=O)OCCNC(=O)c2ccccc2)c(Cl)cc1Cl
  -1.1, -1.8, i, -2, /, 0.65, -17, -14, 0.0

# Screening data as filed in PubChem BioAssay.

# This is a subset; count on the stated rates, not on these rows.
